# NOMO-1 viab = STK33 inhibitor candidate reducing NOMO-1 cell viability; inhibition, % (test concentration not listed); AID 2330; actives 7.5% (n = 37,000); NOMO-1 AML viability, CellTiter-Glo luminescence, 72 h;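 active means most replicates above 80%; inconclusive means exactly half above 80%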;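 further: wells of about 30 µL received 25 nL stock; 0% = median of vehicle wells and 100% = reference inhibitor level; the first replicate is given; inactives centre near 10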
# * = called active by the depositor; ? = inconclusive. This is a subset; count on the stated rates, not on these rows.
SMILES,NOMO-1 viab
C[C@@H]1CN([C@@H](C)CO)C(=O)c2cccc(NC(=O)c3nc4ccccc4s3)c2O[C@@H]1CN(C)Cc1ccncc1,35
COc1ccc(/C=C2\Oc3cc(O)cc(O)c3C2=O)cc1O,8
Cc1ccc2c(c1)c(=O)c(C(=O)O)cn2C,7
COC1CC(=O)C23C(=O)NC(CC(C)C)C2C(C)C(C)=CC3/C=C(\C)CCC(O)C1O (stereo unspecified),89*
COc1ccc(Cl)cc1N(CC(=O)Nc1ccc(Br)c(Cl)c1)S(C)(=O)=O,9
Cc1ccc(S(=O)(=O)N(C)C[C@H]2Oc3ccc(NS(=O)(=O)c4cn(C)cn4)cc3C(=O)N([C@H](C)CO)C[C@H]2C)cc1,5
CCN(CC(=O)Nc1cccc(F)c1)S(=O)(=O)c1ccc(C)cc1,4
CCN(CC(=O)Nc1ccc(I)cc1)S(=O)(=O)c1ccc2ccccc2c1,9
COC(=O)c1cc(OC)c(OC)cc1NC(=O)C(C)Oc1cccc(Cl)c1 (stereo unspecified),36
C[C@@H]1CN([C@@H](C)CO)C(=O)c2cc(NC(=O)c3ccncc3)ccc2O[C@@H]1CN(C)Cc1ccc2c(c1)OCO2,40
C[C@@H]1CN([C@@H](C)CO)C(=O)Cc2cc(NC(=O)C3CC3)ccc2O[C@@H]1CN(C)C(=O)Nc1ccccc1,-5
CCc1ccc(N=Cc2c(O)n(-c3ccccc3)c(=O)c3ccccc23)cc1,120*
C[C@@H]1CN([C@@H](C)CO)C(=O)c2cc(NC(=O)Nc3ccc(C(F)(F)F)cc3)ccc2O[C@H]1CN(C)Cc1ccc(C(=O)Nc2ccccc2N)cc1,11
C[C@H]1CN([C@@H](C)CO)C(=O)Cc2cc(NC(=O)NC3CCCCC3)ccc2O[C@H]1CN(C)S(=O)(=O)c1cn(C)cn1,-13
CC(C)C(NS(=O)(=O)c1c(Cl)cccc1Cl)C(=O)O (stereo unspecified),-7
Cc1noc(C)c1NC(=O)Nc1ccc2c(c1)CC(=O)N([C@@H](C)CO)C[C@H](C)[C@H](CN(C)Cc1ccc(Cl)c(Cl)c1)O2,114*
C[C@@H]1CN([C@H](C)CO)C(=O)c2cc(NC(=O)CCN3CCOCC3)ccc2O[C@H]1CN(C)S(=O)(=O)c1cccs1,14
C[C@@H]1CN([C@@H](C)CO)C(=O)c2cccc(NS(C)(=O)=O)c2O[C@H]1CN(C)CC1CC1,0
CCC(=O)NC(c1ccco1)c1cc(Cl)c2cccnc2c1O (stereo unspecified),126*
C[C@H]1CN([C@@H](C)CO)C(=O)c2cccc(NS(=O)(=O)c3ccc(F)cc3)c2O[C@@H]1CN(C)S(=O)(=O)c1cn(C)cn1,3
C[C@@H]1CN([C@H](C)CO)C(=O)c2cc(NS(C)(=O)=O)ccc2O[C@@H]1CN(C)Cc1ccc(C(=O)Nc2ccccc2N)cc1,47
COc1c2c(cc3oc(CO[C@@H]4O[C@H](CO)[C@@H](O)[C@H](O)[C@H]4O)cc(=O)c13)OC(C(C)(C)O)C2 (stereo partly specified),2
COc1ccc(C(=O)NCc2oc(-c3ccccc3)cc2C(=O)O)cc1,-16
CC1(CO)CCCC2(C)C3=C(CC(=O)C12)C(=O)OC3 (stereo unspecified),14
C[C@H](CO)N1C[C@H](C)[C@@H](CN(C)S(=O)(=O)c2ccc(Cl)cc2)Oc2c(NC(=O)c3ccncc3)cccc2C1=O,16
# Additional records follow:
SMILES,NOMO-1 viab
CC(C)NC(=O)Nc1ccc2c(c1)C(=O)N([C@@H](C)CO)C[C@H](C)[C@H](CN(C)Cc1ccc(C(=O)O)cc1)O2,11
COc1ccc(-c2noc(CSc3nc(-c4ccccc4)cc(=O)[nH]3)n2)cc1OC,-15
CCN(CC(=O)Nc1cccc([N+](=O)[O-])c1C)S(=O)(=O)c1ccc(Br)cc1,-20
C[C@@H]1CN([C@@H](C)CO)C(=O)c2cccc(NC(=O)CCCCCC(=O)Nc3ccccc3N)c2O[C@@H]1CN(C)Cc1ccc2c(c1)OCO2,?
C[C@H]1CN([C@@H](C)CO)C(=O)c2cc(NC(=O)Cc3ccccc3)ccc2O[C@H]1CN(C)Cc1ccc(-c2ccccc2)cc1,15
C[C@H]1CN([C@@H](C)CO)C(=O)Cc2cc(NS(=O)(=O)c3ccc(Cl)cc3)ccc2O[C@@H]1CN(C)Cc1ccc2c(c1)OCO2,48
COc1ccc(NC(=O)N(C)C[C@@H]2Oc3c(NC(=O)C4CC4)cccc3C(=O)N([C@@H](C)CO)C[C@H]2C)cc1,-8
C[C@H](CO)N1C[C@H](C)[C@H](CN(C)Cc2ccc3c(c2)OCO3)Oc2ccc(NC(=O)Nc3cccc4ccccc34)cc2CC1=O,34
CCOC(=O)c1c(NC(=S)Nc2ccsc2C(=O)OC)sc(C)c1-c1ccccc1,31
C[C@H]1CN([C@@H](C)CO)C(=O)Cc2cc(NS(=O)(=O)c3ccc(F)cc3)ccc2O[C@H]1CN(C)C,5
C[C@@H]1CN([C@@H](C)CO)C(=O)c2cc(NC(=O)c3ccncc3)ccc2O[C@@H]1CN(C)S(=O)(=O)c1ccc(Cl)cc1,23
C[C@H](CO)N1C[C@H](C)[C@H](CN(C)Cc2ccncc2)Oc2ccc(NC(=O)CCCCCC(=O)Nc3ccccc3N)cc2C1=O,32
Cc1noc(C)c1NC(=O)Nc1cccc2c1O[C@@H](CN(C)Cc1ccc3c(c1)OCO3)[C@@H](C)CN([C@@H](C)CO)C2=O,13
CC(C)N1CN=C(Nc2nc3ccccc3o2)NC1,-4
C[C@@H]1CN([C@@H](C)CO)C(=O)c2cc(NC(=O)Nc3ccc(F)cc3)ccc2O[C@H]1CN(C)Cc1ccc(C(=O)O)cc1,-1
C[C@H](CO)N1C[C@H](C)[C@H](CN(C)Cc2ccc(Cl)c(Cl)c2)Oc2ccc(NC(=O)C3CCCCC3)cc2C1=O,37
C[C@@H]1CN([C@H](C)CO)C(=O)c2cccc(NC(=O)Nc3ccc4c(c3)OCO4)c2O[C@H]1CN(C)Cc1ccc(Cl)c(Cl)c1,87*
C[C@H]1CN([C@@H](C)CO)C(=O)c2cc(NC(=O)Cn3cnnn3)ccc2O[C@H]1CN(C)C(=O)Nc1ccc(F)cc1,8
C[C@@H]1CCCCO[C@H](CN(C)C(=O)Cc2ccccc2)[C@@H](C)CN([C@H](C)CO)C(=O)c2cc(NC(=O)CCC(F)(F)F)ccc2O1,19
C[C@@H]1CN([C@H](C)CO)C(=O)c2cccc(NC(=O)c3ccc(-c4nccs4)cc3)c2O[C@H]1CN(C)S(=O)(=O)c1ccc(F)cc1,1
C=C(COC(C)=O)[C@@H]1Cc2cc(C(C)=O)ccc2O1,-14
Cc1noc(C)c1NC(=O)Nc1ccc2c(c1)C(=O)N([C@H](C)CO)C[C@@H](C)[C@H](CN(C)Cc1ccc3c(c1)OCO3)O2,-1
C[C@H](CO)N1C[C@H](C)[C@@H](CN(C)S(=O)(=O)c2ccc(Cl)cc2)Oc2ccc(NC(=O)C3CCCCC3)cc2C1=O,13
C[C@@H]1CN([C@H](C)CO)C(=O)c2cccc(NC(=O)Nc3ccccc3)c2O[C@H]1CN(C)S(=O)(=O)c1cn(C)cn1,-5
C[C@@H]1CN([C@@H](C)CO)C(=O)c2cc(NC(=O)CCN3CCOCC3)ccc2O[C@@H]1CN(C)C(=O)Nc1ccc(F)cc1,4
# Next part:
SMILES,NOMO-1 viab
CC(C)NC(=O)N(C)C[C@H]1Oc2c(NC(=O)C3CC3)cccc2C(=O)N([C@@H](C)CO)C[C@@H]1C,7
C=CCN1CCc2c(cc(O)c(O)c2Br)[C@@H](c2ccccc2)C1,109*
C[C@@H]1CN([C@H](C)CO)C(=O)c2cc(NC(=O)C3CCCCC3)ccc2O[C@H]1CN(C)Cc1ccc(Cl)c(Cl)c1,47
COc1ccc(C2C(C(=O)Nc3ccccc3)=C(C)Nc3ncnn32)cc1O (stereo unspecified),-18
C[C@@H]1CCCCO[C@@H](CN(C)C(=O)Nc2ccc(C(F)(F)F)cc2)[C@@H](C)CN([C@H](C)CO)C(=O)c2cc(NS(=O)(=O)c3cn(C)cn3)ccc2O1,3
Cc1ccccc1OCCn1c(C(C)O)nc2ccccc21 (stereo unspecified),27
Cn1c(SCC(=O)Nc2ccccc2C(=O)Nc2ccccc2)nc2ccccc2c1=O,50
C[C@H](CO)N1C[C@H](C)[C@H](CN(C)C(=O)Nc2ccc(F)cc2)Oc2c(NS(=O)(=O)c3ccc(F)cc3)cccc2C1=O,26
C[C@H]1CN([C@@H](C)CO)C(=O)c2cccc(NC(=O)Nc3cccc4ccccc34)c2O[C@H]1CN(C)S(C)(=O)=O,22
C[C@H](CO)N1C[C@H](C)[C@H](CN(C)C(=O)NC2CCCCC2)Oc2ccc(NC(=O)Nc3ccc(C(F)(F)F)cc3)cc2CC1=O,1
Cc1ccc(S(=O)(=O)Nc2cccc3c2O[C@@H](CN(C)Cc2ccc(C(=O)Nc4ccccc4N)cc2)[C@@H](C)CN([C@H](C)CO)C3=O)cc1,137*
C[C@@H]1CN([C@H](C)CO)C(=O)Cc2cc(NS(=O)(=O)c3cn(C)cn3)ccc2O[C@@H]1CN(C)S(=O)(=O)c1cn(C)cn1,-4
Cc1ccc(S(=O)(=O)N(C)C[C@@H]2Oc3ccc(NC(=O)Nc4c(C)noc4C)cc3C(=O)N([C@H](C)CO)C[C@@H]2C)cc1,10
C[C@H](CO)N1C[C@H](C)[C@@H](CN(C)S(C)(=O)=O)Oc2c(NC(=O)CCCCCC(=O)Nc3ccccc3N)cccc2C1=O,25
COc1ccc(CNC(=O)c2c(C)oc3c2cc(OC(C)=O)c2ccccc23)cc1,43
CC(C)(C)NC(=O)c1ccc(-n2nc(C(F)(F)F)c3c2-c2ccoc2CC3)cc1,56
C[C@@H]1CN([C@H](C)CO)C(=O)c2cc(NS(=O)(=O)c3cccs3)ccc2O[C@@H]1CN(C)CC1CCCCC1,4
Cc1cccc(OCC(=O)Nc2cccc(-c3nc4cc(C)cc(C)c4o3)c2)c1,-18
C[C@H](CO)N1C[C@H](C)[C@@H](CN(C)C(=O)Nc2cccc3ccccc23)Oc2ccc(NC(=O)Cc3ccccc3)cc2C1=O,6
COC(=O)C[C@H]1C(C)(C)C2(Cl)O[C@@]34CC2C(=O)[C@]1(C)C3CC[C@]1(C)C4=CC(=O)O[C@H]1c1ccoc1 (stereo partly specified),101*
C[C@@H]1CN([C@@H](C)CO)C(=O)c2cc(NC(=O)CCN3CCOCC3)ccc2O[C@@H]1CN(C)CC1CCCCC1,-1
CNC[C@H]1Oc2ccc(NC(=O)c3ccncc3)cc2CC(=O)N([C@H](C)CO)C[C@H]1C,7
Cc1ccc(C)c(N2CCN(CC(=O)Nc3ccc([N+](=O)[O-])cc3C(=O)Nc3ccccc3F)CC2)c1,38
Cc1cc(C)c(NC(=O)CN(C)S(=O)(=O)c2ccc(Cl)cc2)c(C)c1,1
CC(C)NC(=O)N(C)C[C@@H]1Oc2ccc(NC(=O)Nc3ccc(C(F)(F)F)cc3)cc2CC(=O)N([C@H](C)CO)C[C@H]1C,17
# The list continues:
SMILES,NOMO-1 viab
C[C@@H]1CN([C@H](C)CO)C(=O)c2cccc(NS(=O)(=O)c3cn(C)cn3)c2O[C@H]1CN(C)S(=O)(=O)c1ccccc1,17
Cc1cccc(C)c1N(CC(=O)Nc1ccc(Br)cc1)S(C)(=O)=O,0
CNC[C@H]1Oc2c(NS(=O)(=O)c3ccccc3)cccc2C(=O)N([C@H](C)CO)C[C@@H]1C,20
C[C@@H]1CN([C@H](C)CO)C(=O)c2cc(NC(=O)NC3CCCCC3)ccc2O[C@@H]1CN(C)Cc1ccc(C(F)(F)F)cc1,24
Oc1cccc2ccc[n+](CC(O)Cn3c4ccccc4c4ccccc43)c12 (stereo unspecified),70
C[C@H]1CN([C@@H](C)CO)C(=O)c2cccc(NC(=O)Nc3ccc(F)cc3)c2O[C@H]1CN(C)C(=O)Nc1ccc(F)cc1,20
C[C@H](CO)N1C[C@H](C)[C@H](CN(C)C(=O)Nc2ccc(F)cc2)Oc2ccc(NC(=O)Nc3ccc4c(c3)OCO4)cc2CC1=O,-9
O=C1c2ccccc2C(=O)N1CCc1nc2c3c4c(sc3ncn2n1)CCCCC4,14
CN1C(=O)C(O)(CC(=O)c2ccco2)c2cc(Cl)ccc21 (stereo unspecified),133*
COc1ccc(S(=O)(=O)N(C)C[C@@H]2OCCCC[C@@H](C)Oc3ccc(NC(=O)NC4CCCCC4)cc3C(=O)N([C@H](C)CO)C[C@@H]2C)cc1,12

# In the list so far, these have an aryl methoxy group.
SMILES,NOMO-1 viab
COc1ccc(/C=C2\Oc3cc(O)cc(O)c3C2=O)cc1O,8
COc1ccc(Cl)cc1N(CC(=O)Nc1ccc(Br)c(Cl)c1)S(C)(=O)=O,9
COC(=O)c1cc(OC)c(OC)cc1NC(=O)C(C)Oc1cccc(Cl)c1 (stereo unspecified),36
COc1c2c(cc3oc(CO[C@@H]4O[C@H](CO)[C@@H](O)[C@H](O)[C@H]4O)cc(=O)c13)OC(C(C)(C)O)C2 (stereo partly specified),2
COc1ccc(C(=O)NCc2oc(-c3ccccc3)cc2C(=O)O)cc1,-16
COc1ccc(-c2noc(CSc3nc(-c4ccccc4)cc(=O)[nH]3)n2)cc1OC,-15
COc1ccc(NC(=O)N(C)C[C@@H]2Oc3c(NC(=O)C4CC4)cccc3C(=O)N([C@@H](C)CO)C[C@H]2C)cc1,-8
COc1ccc(C2C(C(=O)Nc3ccccc3)=C(C)Nc3ncnn32)cc1O (stereo unspecified),-18
COc1ccc(CNC(=O)c2c(C)oc3c2cc(OC(C)=O)c2ccccc23)cc1,43
COc1ccc(S(=O)(=O)N(C)C[C@@H]2OCCCC[C@@H](C)Oc3ccc(NC(=O)NC4CCCCC4)cc3C(=O)N([C@H](C)CO)C[C@@H]2C)cc1,12

# An excerpt from above in order of molecular weight, falling.
SMILES,NOMO-1 viab
C[C@@H]1CN([C@H](C)CO)C(=O)c2cccc(NS(=O)(=O)c3cn(C)cn3)c2O[C@H]1CN(C)S(=O)(=O)c1ccccc1,17
Cc1cccc(C)c1N(CC(=O)Nc1ccc(Br)cc1)S(C)(=O)=O,0
CN1C(=O)C(O)(CC(=O)c2ccco2)c2cc(Cl)ccc21 (stereo unspecified),133*

# Assay outcomes (PubChem)
